D2 PAM: human D2 receptor positive allosteric modulation; actives 0.23% (n = 360,000); DiscoveRx D2 beta-arrestin cells, luminescence, 90 min; 100% = 57 uM dopamine signal; potentiation, % (concentration not given with the values); active = potentiation of 50% or more; inconclusive = 30% to 50%; inactive = 30% or less;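 note: compound concentration not given in the record; tested on top of an EC20 dose of dopamine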
Target sequence (P14416 whole entry, looked up): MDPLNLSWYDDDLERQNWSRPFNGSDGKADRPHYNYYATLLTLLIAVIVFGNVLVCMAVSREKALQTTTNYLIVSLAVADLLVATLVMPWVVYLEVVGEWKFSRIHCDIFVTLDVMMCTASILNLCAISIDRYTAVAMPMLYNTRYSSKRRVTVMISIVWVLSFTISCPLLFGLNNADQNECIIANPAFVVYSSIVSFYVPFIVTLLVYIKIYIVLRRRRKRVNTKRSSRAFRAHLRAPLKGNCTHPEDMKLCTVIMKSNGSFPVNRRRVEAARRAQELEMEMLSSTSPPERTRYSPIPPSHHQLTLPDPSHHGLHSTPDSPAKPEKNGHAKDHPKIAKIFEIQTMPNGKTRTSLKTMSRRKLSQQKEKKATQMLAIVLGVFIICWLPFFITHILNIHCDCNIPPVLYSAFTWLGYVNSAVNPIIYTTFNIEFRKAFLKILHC
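D2 cells co-treated with compound plus 50 nM dopamine (EC20) for 90 min at 37 deg C to detect potentiation. Beta-arrestin recruitment was read as enzyme-fragment luminescence after 1 h at ambient temperature. Full response was set by 57 uM dopamine.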
TRPV1 potentiator: potentiators of human vanilloid receptor 1 (TRPV1); potentiation, % at 8.33 µM; TRPV1-expressing cells, Fluo-8 calcium influx, capsaicin EC20 potentiation; host cell line not named in the record; control for the full effect not named in the record; AID 540277; actives 0.02% (n = 320,000); active means potentiation above 80%; inconclusive means 30% to 80%; inactive means below 30%; note: 0% is about no effect
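TRPV1-expressing cells were cultured overnight at 35.5C and loaded with Fluo-8 calcium dye for 40 to 90 min at room temperature. After a 10 s baseline, compound was added and calcium influx was read kinetically for 3 min (ex 480/em 520 nm).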
gsp antagonist: antagonizes gsp, the McCune-Albright syndrome mutation. gsp-mutant cells, cAMP HTRF, 30 min; control for the full effect not named in the record. Potency, µM (top dose mostly 76.9 µM), for inactives: at the top dose activity change, negative = inhibition, usual class: inhibitors. actives 0.4% (n = 340,000). AID 624288; active = falling curve of any shape with a large fitted effect; inconclusive = falling curve, mostly with a smaller effect; inactive = flat or rising curve; cell line not stated here;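 note: intracellular cAMP measured with PDE inhibitor Ro 20-1724 present during compound exposure; potency is the fitted concentration of half-maximal effect; % is set by controls: 0 for no effect and ±100 for the full control effect; nearly all actives have a fitted effect of over 65% in size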
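Cells, 2000/well, grown 16–24 h in DMEM 10% FBS with 0.5 mg/ml G418, then compounds plus […] (300 uM addition stock), 30 min at 37C. cAMP read by HTRF (cAMP-d2 and anti-cAMP antibody-K in lysis buffer) after 30 min RT.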
Sfp PPTase inh: blocks B. subtilis Sfp PPTase activity; Biochemical Sfp PPTase activity, qHTS; Potency, µM, inactives show max response, negative = inhibition, usual class: inhibitors; actives 3.5% (n = 310,000); AID 1490; active = well fitted inhibition curve with a large enough effect; inconclusive = small, poorly fitted or top-dose-only effect, or another doubt; inactive = no such curve, though single readings can be large or run the other way;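 note: the enzyme is Sfp with the accession as filed and its product quenches rhodamine fluorescence; potency is the fitted concentration of half-maximal effect; 0% = enzyme reaction without inhibitor and -100% = no enzyme wells; top concentration of the series not given in the record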
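Fluorescence-quenching assay with 15 nM Sfp, 5 uM rhodamine-CoA and 12.5 uM BHQ-2-labelled ybbR peptide in pH 7.6 Hepes/MgCl2 buffer. Enzyme was pre-incubated with compound for 15 min at room temperature. Rate was taken from the 30-min fluorescence change (525/598 nm).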
gsp ag: agonists of gsp mutant (McCune-Albright syndrome); gsp mutant cells, cAMP HTRF, 30 min; control for the full effect not named in the record; Potency, µM (top dose mostly 76.9 µM), for inactives: at the highest dose activation (cAMP increase), usual class: activators; actives 0.13% (n = 340,000); AID 624287; active = well fitted activation curve with a large enough effect; inconclusive = small, poorly fitted or top-dose-only effect, or another doubt; inactive = no such curve, though single readings can be large or run the other way; cell line not stated here;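 note: phosphodiesterase inhibitor Ro 20-1724 added with compounds to block cAMP breakdown; potency is the fitted concentration of half-maximal effect; nearly all actives have a fitted effect of over 60% in size; about a fifth of the inactives were tested at one dose only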
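Cells in DMEM/10% FBS with G418 were pretreated with compounds in DMSO plus […] (300 uM stock) for 30 min at 37C. cAMP was measured by HTRF (cAMP-d2 plus anti-cAMP antibody-K) after 30 min at room temperature.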
Menin MLL FP FL: menin-MLL binding inhibition, fluorescein peptide; Fluorescence polarization, fluorescein-MLL peptide displacement from menin; 290,000 tested, under 10 active; FP activity change, % at 61.4 µM; inconclusive = falling polarisation curve, or a change in total fluorescence; inactive = total fluorescence flat and polarisation flat or rising; no compound was filed as active; the % refers to the polarisation; negative = inhibition;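 note: % of control where 0% means no effect; inhibitors lower the polarisation; unlabelled MLL peptide was the positive control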
ClpP mod: qHTS Assay for Activators of ClpP; purified B. subtilis ClpP, FRET peptide cleavage, 20 min; Potency, µM (titrated, usually from 57.5 µM), inactives show top-dose activity change, negative = active; actives 1.9% (n = 340,000); AID 651965, 2013; active = well fitted falling curve with a large enough effect; inconclusive = small, poorly fitted or top-dose-only effect; inactive = no such curve, though single readings can be large or run the other way; note: potency is the fitted concentration of half-maximal effect; the source files actives as falling curves though it sought activators and does not explain the sign; nearly all actives have a fitted effect of over 65% in size; many hits overshoot -100%
Target sequence (P80244 whole entry, looked up): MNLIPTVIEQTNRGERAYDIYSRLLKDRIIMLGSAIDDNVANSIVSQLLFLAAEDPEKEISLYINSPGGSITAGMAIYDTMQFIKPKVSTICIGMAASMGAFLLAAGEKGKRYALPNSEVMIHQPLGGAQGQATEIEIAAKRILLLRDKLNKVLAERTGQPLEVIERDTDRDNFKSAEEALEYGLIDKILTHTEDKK
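Buffer: 100 mM Tris/HCl pH8, 100 mM KCl, 0.05% low protease BSA, 2.5% glycerol, 0.01% Tween-20. ClpP 10 microg/mL final; 20 min RT; delta FRET normalized to ADEP and DMSO controls.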
* hit, by the source's call; ? = inconclusive; . = no result given; & = joins results of further samples; [ ] = another dose, or the depositor's remark. Rows were taken by chance, and some 5.1% of all compounds hit somewhere here.

SMILES	D2 PAM	TRPV1 potentiator	gsp antagonist	Sfp PPTase inh	gsp ag	Menin MLL FP FL	ClpP mod
CSc1ccccc1C(=O)N1CCCC(CNC(=O)c2ccc(F)cc2)C1 (stereo not given)	-2	?	2%	5%	?	-2.2	0.0%
Cc1nn(-c2ccccc2)c(C)c1/C=N/n1c(-c2ccc(Cl)cc2)n[nH]c1=S	-23	-7	-28%	-20%	-4%	1.4	2.3%
O=C1Cc2c([nH]c3ccc(Br)cc23)-c2ccccc2N1	-21	.	-13%	-28%&-1%	11%	6.0&4.0	-23%
CCCOc1ccc(N2C(=O)CC(N(C(=O)c3ccco3)c3ccc(OCCC)cc3)C2=O)cc1 (stereo not given)	-10	1	5%	14%	0%	-0.3	-3.4%
CCn1c(=O)cc(SCC(=O)NCc2ccccn2)c2ccccc21	4	-6	-2%	18%	?	0.6	-22%
CCN(CCO)Cc1csc2c(Br)cccc12	-13	-5	-10%	8%	?	4.7	-3.0%
Cc1cc(C)cc(NC(=S)N2CCN(Cc3ccccc3)CC2)c1	-11	-1	-1%	12%	-3%[15.4 µM]	-1.1	.
CCOC(=O)c1nccnc1C(=O)Nc1cccc(C(F)(F)F)c1	-10	-5	-8%	13%	-2%[15.4 µM]	3.0	.
N#Cc1c(N)nc(-c2ccccc2)nc1-c1ccccc1	1	-27	0%	4%	-41%[inhibitor]	2.5	-4.1%
Oc1ccc2ccccc2c1N=Nc1ccccn1	?	-20	2%[15.4 µM]	-15%	-83%[inhibitor]	5.1	-1.3%
Cc1csc(SCC(=O)O)n1	-13	7	3%[15.4 µM]	12%	11%	1.7	-2.3%
C[C@H](CO)N1C[C@H](C)[C@@H](CN(C)C(=O)Nc2ccccc2)Oc2ncc(-c3ccc(C#N)cc3)cc2C1=O	5	.	.	.	-31%[inhibitor]	.	4.0%
Cc1ccc(S(=O)(=O)NC2(C(F)(F)F)NC(=O)N(c3ccc(F)cc3)C2=O)cc1 (stereo not given)	-5	-3	-5%	8%	-7%	.	0.3%
Cc1ccc(C(=O)N2CCC3(CC2)Oc2ccc(F)cc2C(=O)C32CC(c3ccc(Cl)cc3)=NO2)s1 (stereo not given)	-2	?	-6%	-7%	.	1.8	-1.1%
CNC(C)C#Cc1ccc2oc3cc(C)c(C)cc3c(=O)c2c1 (stereo not given)	-7	.	-14%	.	.	.	-27%
CCN(CC#CCC(O)(c1ccccc1)C1CCCC1)C(C)C (stereo not given)	-17	0	2%[15.4 µM]	-13%	-4%	-2.7	-0.8%
COC(=O)CSc1nc(NC#N)nc(NC(C)C)n1	-3	-2	3%	6%	-41%[inhibitor]	-6.3	0.5%
CCNc1nc2[nH]c(=O)c3c(c2s1)OC(N)=C(C#N)C3c1ccc(C)cc1 (stereo not given)	-13	-13	-9%	45µM*	-17%	?	-14%
NC(=O)NC(Cc1ccccc1)C(=O)Nc1ccc(S(N)(=O)=O)cc1 (stereo not given)	-13	-4	-6%[15.4 µM]	18%	-2%	-2.0	-2.5%
O=c1n(-c2ccccc2)c(=O)n(Cc2ccccn2)n1Cc1ccccn1	-4	3	8%	9%	-22%	0.1	-2.1%
O=S(=O)([O-])C(c1ccccc1)[n+]1ccccc1 (stereo not given)	-2	26	-9%	.	0%	.	-1.9%
Cc1ccc(C)c(OCCNc2ncccc2[N+](=O)[O-])c1	3	5	-11%	-5%	6%	2.0	-1.1%
O=C(CC12CC3CC(CC(C3)C1)C2)Nc1ccc(C(=O)O)cc1	1	16	1%	14%	-38%[inhibitor]	2.4	.
COc1ccc(CCN(C)C(=O)c2cc(-c3ccccc3)nc3ccccc23)cc1OC	3	15	-6%	-15%	13%	.	-0.8%
COc1cccc(NC(=O)c2cc(=O)c3ccccc3o2)c1	-3	9	5%	-6%	1%	-0.7	-2.6%
c1ccc2c(c1)ncn2CCn1cnc2ccccc21	-12	21	12%	-8%	-40%[inhibitor]	-2.2	1.9%
C/C(=N/NC(=O)c1nnn(-c2nonc2N)c1-c1ccccc1)c1ccc2c(c1)OCO2	-9	-7	-23%	15%	1%[15.4 µM]	4.0	.
O=[N+]([O-])c1cc2c(c(CSc3ncccn3)c1)OCOC2	5	-3	12%	19%	54%[15.4 µM]	0.0	.
c1ccc(-c2cn(-c3ccccc3)c3ncnc(NCCCN4CCOCC4)c23)cc1	-13	-9	-8%	-9%	7%[15.4 µM]	2.0	.
COCCN(C(=O)CSc1nnc(-c2cccc(Cl)c2)n1N)c1c(N)n(CC(C)C)c(=O)[nH]c1=O	-7	.	.	.	-10%	.	-3.8%
CC(C)OC(=O)c1nnc(Cc2ccc(F)cc2)o1	2	.	3%	-7%	?	2.9	-1.1%
N#CC1=C(N)Oc2cc(N)ccc2C1c1ccsc1 (stereo not given)	3	0	6%	5%	17%	.	-12%
O=C(COC(=O)C12CC3CC(CC(O)(C3)C1)C2)Nc1cccc(Br)c1	-5	-10	-3%	.	-3%	.	-1.7%
O=C(/C=C/c1ccc(F)cc1)Nc1ccc(S(=O)(=O)Nc2ncccn2)cc1	-7	.	-6%	7%	17%	15	0.0%
Cc1c(NC(=O)C2CC(c3c(F)cccc3Cl)=NO2)c(=O)n(-c2ccccc2)n1C (stereo not given)	-4	-10	1%	-1%	0%	0.1	-3.6%
Cc1c(Cl)cccc1NC(=O)CSc1nc2ncc(Cl)cc2[nH]1	-8	-6	6%	6%	-63%[inhibitor]	-0.4	1.1%
Cc1cc(NC(=O)c2ccc(NC(=O)C(C)C)cc2)no1	-1	4	12%	11%	5%	4.0	-1.1%
CC(C)CN(C(=O)CSc1nnnn1C)C1CCS(=O)(=O)C1 (stereo not given)	-5	-3	8%	26%	0%	-0.7	-2.2%
CC(C)CN(C(=O)COC(=O)c1cnccn1)c1c(N)n(Cc2ccccc2)c(=O)[nH]c1=O	-4	25	6%	.	-4%[15.4 µM]	.	0.4%
CN(CCOc1ccc(Br)cc1)CC(O)c1ccccc1 (stereo not given)	-14	5	17%	?	12%	?	-0.4%
CN(C(=O)CSc1nncc2ccccc12)c1ccccc1	-9	.	-2%	.	-7%[15.4 µM]	.	-6.2%
COc1ccc(SCCN2CCN(C)CCC2=O)cc1	-9	1	9%	3%&5%	.	-0.7&1.4	0.8%
O=C(O)COc1ccc(-c2nnn(CC(=O)O)n2)cc1	-6	23	11%	-10%	5%	-3.2	-1.6%
O=S(=O)(Nc1cccc(S(=O)(=O)N2CCOCC2)c1)c1cccs1	-4	2	-1%	17%	-3%	-3.7	-1.8%
COc1ccccc1NCCC(=O)OCC(=O)NC1CCCCC1	-6	12	2%	8%	-33%	-0.2	1.0%
Cc1cccc(C)c1OCC(=O)NC(Cc1c[nH]c2ccccc12)C(=O)O (stereo not given)	-2	13	4%	12%	-12%	-4.8	3.0%
CC(C)(C)c1ccc(C2(C)NC(=O)N(CC(=O)NCc3cccs3)C2=O)cc1 (stereo not given)	-5	-12	-9%	8%	7%	5.9	-0.2%
Cc1nnc(NC(=O)CCSCCC(=O)Nc2nnc(C)s2)s1	-8	-1	5%	-15%	-35%[inhibitor]	8.0	-0.8%
CCOC(=O)CN=C/C(C(C)=O)=C(/C)O	2	3	3%	10%	-8%	0.3	-0.5%
COc1ccc(C(=O)c2ccccc2)cc1Br	-6	10	-18%	-5%	6%	1.8	-0.2%
CC(C)C(=O)N1CCN(c2ccc(NC(=O)c3ccco3)cc2Cl)CC1	0	-11	?	3%	-38%	-7.9	.
CCN(CC)c1ccc(/C=N/NC(=O)c2ccco2)cc1	-8	-26	16%	-23%	-39%[inhibitor]	0.7	-1.5%
Cc1ccc(NC(=O)c2noc3c2CCCCC3)cc1C	-2	-2	-3%	13%	-2%	1.5	30%
CN(CCCNC(=O)c1ccccc1F)CCCNC(=O)c1ccccc1F	-18	-8	9%	18%	5%	-9.6	0.2%
COc1ccc(OCCNc2cc(N3CCOCC3)ccc2[N+](=O)[O-])cc1	19	0	-15%	6%	-11%	1.9	1.2%
Cc1nn(C(=O)c2nn(C)cc2[N+](=O)[O-])c(C)c1Cl	-1	1	1%	22%	-21%	-1.2	.
COc1ccc(C(=O)NNC(=O)C2CCCN(C3CC(=O)N(c4ccccc4)C3=O)C2)cc1 (stereo not given)	-12	8	5%	10%	-16%	1.4	2.0%
Cc1nn(Cc2ccc(C(=O)N3N=C(C(F)F)CC3(O)C(F)F)cc2)c(C)c1[N+](=O)[O-] (stereo not given)	-8	-8	-5%	4%	17%	-2.1	-1.8%
Cc1ccc(-n2c(C)c(C)c3c(NCCN(C)C)ncnc32)cc1	-19	-3	14%	7%	43%	-2.1	-6.7%
O=C1CCCc2c1nc(-c1ccccc1F)n2O	-3	-9	12%	7%	4%[15.4 µM]	2.4	.
Next section
SMILES	D2 PAM	TRPV1 potentiator	gsp antagonist	Sfp PPTase inh	gsp ag	Menin MLL FP FL	ClpP mod
O=C(CCNS(=O)(=O)c1ccccc1)OCC(=O)c1ccc[nH]1	0	19	0%	.	-10%	.	-3.7%
Cc1cc(NC(=O)COc2ccccc2C(N)=O)no1	-4	.	-3%	.	4%	.	.
CCOc1ccccc1NC(=O)Cn1c(C)cc(COC)c(C#N)c1=O	-12	-9	5%	18%	6%	0.5	-21%
Cc1ccc(Cl)cc1N1CCN(C(=O)c2ccc(NC3=NC4CS(=O)(=O)CC4S3)cc2)CC1 (stereo not given)	-2	6	-17%	13%	5%	.	0.5%
O=C(Cn1cnc2ccccc2c1=O)NCCC(=O)Nc1ccc2c(c1)OCCO2	-7	14	-7%	4%	?	1.5	-0.2%
CCN1CCN(C(C)C(=O)Nc2c(C)n(C)n(-c3ccccc3)c2=O)CC1 (stereo not given)	2	-3	8%	?	0%	3.0	-1.2%

Three entries from above, sorted by the number in Menin MLL FP FL, falling.
canonical_smiles | D2 PAM | gsp antagonist | Sfp PPTase inh | gsp ag | Menin MLL FP FL
CCN1CCN(C(C)C(=O)Nc2c(C)n(C)n(-c3ccccc3)c2=O)CC1 (stereo not given) | 2 | 8% | ? | 0% | 3.0
O=C(Cn1cnc2ccccc2c1=O)NCCC(=O)Nc1ccc2c(c1)OCCO2 | -7 | -7% | 4% | ? | 1.5
CCOc1ccccc1NC(=O)Cn1c(C)cc(COC)c(C#N)c1=O | -12 | 5% | 18% | 6% | 0.5
